VACV mCherry inh: qHTS for Stage-Specific Inhibitors of Vaccinia Orthopoxvirus: mCherry Reporter Primary qHTS | 310,000 compounds, 0.63% hits | Vaccinia virus mCherry reporter infection, fluorescence; about a quarter of the inactives have no number | Potency, µM (highest dose often 36.5 µM), for inactives: top-dose activity change, negative = inhibition, most hits filed as inhibitors; active = well fitted inhibition curve with a large enough effect; inconclusive = small, poorly fitted or top-dose-only effect; inactive = no such curve, though single readings can be large or run the other way; tested in A549 cells; also: nearly all actives have a fitted effect of over 35% in size; inactives centre near -10
VACV Venus inh: qHTS for Stage-Specific Inhibitors of Vaccinia Orthopoxvirus: Venus Reporter Primary qHTS. Potency, µM (top dose mostly 36.5 µM), inactives show at the top dose activity change, negative = inhibition, actives largely listed as inhibitors. 330,000 compounds, 0.46% hits. Vaccinia virus Venus reporter expression, fluorescence; active means well fitted inhibition curve with a large enough effect; inconclusive means small, poorly fitted or top-dose-only effect; inactive means no such curve, though single readings can be large or run the other way; tested in A549 cells; also: nearly all actives have a fitted effect of over 30% in size; inactives centre near -10
Numbers without * were called inactive; i = inactive; ? = inconclusive; nt = no result given; [ ] = remark or other dose. % is scaled to controls: 0 for no effect and ±100 for the full control effect; potency is read from the fitted curve at half-maximal effect.

Screens in order – VACV mCherry inh | VACV Venus inh
- CC(C)NC(=O)COC(=O)c1cc(Br)ccc1Cl
 : i | -3.5%
- COc1ccc(C(=O)COC(=O)COc2cc(C)cc(C)c2)cc1
 : i | -14.9%
- NS(=O)(=O)c1cccc(NC(=O)CCc2ccc(S(=O)(=O)N3CCOCC3)cc2)c1
 : -11.8% | 0.0%
- CCN(CC)S(=O)(=O)c1cc([N+](=O)[O-])ccc1N=Nc1c(O)[nH]c2ccccc12
 : i | -11.8%
- CC(C)(C)C1CCC(=NNS(=O)(=O)c2ccc(Br)cc2)CC1 (stereo not given)
 : -10.4% | -2.9%
- Nc1nc(SCC(=O)Nc2ncc(C(F)(F)F)cc2Cl)n[nH]1
 : -5.9% | -6.7%
- CN(C)CCCNC(=O)/C(=C\c1ccc(-c2cccc([N+](=O)[O-])c2)o1)NC(=O)c1ccccc1
 : ? | -2.7%
- Fc1ccc(NC(=S)NC2CC3CCCC(C2)N3Cc2cccs2)cc1 (stereo not given)
 : -11.2% | -9.0%
- CN(CC(=O)NC1CC1)S(=O)(=O)c1cc(Cl)ccc1Cl
 : i | -7.7%
- c1ccc2oc(N3CCNCC3)nc2c1
 : -12.0% | -6.0%
- Cc1cc(C)c(NC(=O)Cn2c(=O)n(-c3cccc(C(F)(F)F)c3)c(=O)c3c(C)c(C)sc32)c(C)c1
 : -9.0% | 2.7%
- C(=C\c1nc2ccccc2o1)/c1ccc2c(c1)OCO2
 : -17.0% | -18.3%
- COc1ccc(S(=O)(=O)N2CCCOC2CNC(=O)C(=O)NCCO)cc1 (stereo not given)
 : i | -13.7%
- COCCCNC(=O)c1nc2ccccc2c(=O)n1NC(=O)Nc1c(Cl)cccc1Cl
 : -12.0% | -0.6%
- Cc1cccn2c(=O)nc(SCC(=O)NC3CCCCC3)nc12
 : -11.8% | -2.4%
- COc1ccccc1C(=O)Nn1cnc2ccccc2c1=O
 : -16.8% | -6.7%
- O=C(Nc1cccc(S(=O)(=O)NC2=NCCC2)c1)c1cc(Cl)ccc1[N+](=O)[O-]
 : -13.6% | -4.4%
- Cc1ccc(N(CC(=O)NC2CCCCC2)C(=O)CNC(=O)c2ccco2)c(C)c1
 : -2.0% | 5.2%
- COc1ccc(Nc2oc(-c3ccc(COc4ccccc4)o3)nc2C#N)cc1
 : ? | -26.0%
- CCc1nnc(NS(=O)(=O)c2ccc(NC(=O)c3cccc4ccccc34)cc2)s1
 : -9.1% | -10.0%

Entries of single compounds as entered above:
Results for `CCc1nnc(NS(=O)(=O)c2ccc(NC(=O)c3cccc4ccccc34)cc2)s1` = VACV mCherry inh = -9.1%; VACV Venus inh = -10.0%
Results for `COc1ccc(C(=O)COC(=O)COc2cc(C)cc(C)c2)cc1` = VACV mCherry inh = i; VACV Venus inh = -14.9%
Results for `Cc1cc(C)c(NC(=O)Cn2c(=O)n(-c3cccc(C(F)(F)F)c3)c(=O)c3c(C)c(C)sc32)c(C)c1` = VACV mCherry inh = -9.0%; VACV Venus inh = 2.7%

Remaining list, next part
Screens in order – VACV mCherry inh | VACV Venus inh
- c1ccc(-c2ccccc2OCCCCN2CCCCC2)cc1
 : ? | -27.0%
- C=CCn1c(SCC(=O)NCc2ccco2)nc2sc(C)c(C)c2c1=O
 : i | -11.6%
- Cc1ccc(N2CCN(/N=C/C3=C(N4CCOCC4)C(=C\c4ccccc4)/CC3)CC2)cc1
 : -1.0% | -9.8%
- O=C(Nc1ccc(NC(=O)c2ccccc2)c2ccccc12)c1ccccc1
 : -2.2% | ?
- O=C(Cc1ccccc1)OCn1nnc2ccccc2c1=O
 : i | -11.4%
- CCc1ccc(NC(=S)N2CCCC2)cc1
 : -22.4% | -3.7%
- CCCCCCC(=O)Nc1ccc(Br)cn1
 : -12.1% | -14.6%
- COc1ccc(-c2c(-c3cc(OC)cc(OC)c3)n(C)c3ccc(-c4ccc5[nH]ccc5c4)cc23)cc1
 : i | -23.8%
- O=C(NCc1cccc(C(F)(F)F)c1)c1ccc2sc([C@H]3C[C@H](O)[C@@H](CO)O3)nc2c1
 : -3.6% | 2.1%
- CCOC(=O)C(=CNc1ccc(S(N)(=O)=O)cc1)C(=O)OCC
 : i | 0.1%
- COCCNC(=O)C1(C)CCN(C(=O)c2ccc(OC)c(F)c2)C1 (stereo not given)
 : -4.0% | -5.1%
- O=C(c1cc(-c2ccc(Cl)cc2)n(-c2cc(Cl)ccc2Cl)n1)N1CCOCC1
 : nt | -10.3%
- CCOc1cccc2cc(S(=O)(=O)c3ccccc3F)c(=O)oc12
 : -7.9% | 5.3%
- CN=c1sc2c(n1C)C(=O)c1ccccc1C2=O
 : 2.82µM* | 3.98µM*
- Cc1ccc2oc(C(=O)Nc3c(C(=O)Nc4ccccc4)oc4ccccc34)cc(=O)c2c1
 : -9.4% | 4.5%
- Clc1ccc(/C=N/c2c(-c3ccc(Cl)cc3)nc3n2CCS3)cc1
 : nt | -1.8%
- COc1ccc(N(CC(=O)Nc2nccs2)S(=O)(=O)c2c(C)nn(C)c2C)cc1
 : i | -16.4%
- CC(C(=O)Nc1ccc2c(c1)OCCO2)N(c1ccccc1)S(C)(=O)=O (stereo not given)
 : i[7.34 µM] | -5.9%[7.34 µM]
- O=C(Nc1cc2c(cc1C(=O)c1ccccc1Br)OCCO2)c1ccccc1
 : -17.8% | -23.8%
- Cc1ccc(C)c(N2CCN(c3ccc4cc(S(=O)(=O)N5CCC(C)CC5)ccc4n3)CC2)c1
 : -10.9% | -11.3%
- CCn1nccc1NC(=O)c1csc([C@@H]2O[C@H](CO)[C@H](O)[C@H](O)[C@H]2O)n1
 : -13.3% | -5.1%
- CCCC(C(=O)NC1CCCC1)N(CC1CCCO1)C(=O)CNS(=O)(=O)c1ccc(F)cc1 (stereo not given)
 : i | -6.3%
- COC(=O)[C@@]1(Cc2ccc(F)cc2)[C@H]2c3cc(C(=O)N(C)C)n(CC4CC4)c3C[C@H]2CN1C(=O)c1ccccc1
 : -6.8% | -17.0%
- Cc1ccccc1NC(=O)Cn1c(=O)oc2cc(Br)ccc21
 : i | -7.3%
- Cc1ccc(CNC(=O)C2CCN(C(=O)N3CC(C)Oc4ccc(Cl)cc43)CC2)cc1 (stereo not given)
 : i | -9.4%
- CCCNC(=O)CCc1cc(C(C)(C)C)c(O)c(C(C)(C)C)c1
 : -17.7% | -17.4%
- Cc1ccc(C2=NN(CC(=O)NCc3ccco3)C(=O)CC2)cc1
 : i | -8.4%
- COCCN1C(=O)C(=O)/C(=C(/O)c2cccc(OC)c2)C1c1ccco1 (stereo not given)
 : -9.7% | 2.1%
- Cc1ccc(C(=O)OCC(=O)N(CCc2ccccc2)Cc2ccccc2)cc1S(=O)(=O)N1CCOCC1
 : -16.6% | -12.2%
- Cc1cnc(C(=O)OCC(=O)N(C)CC(=O)Nc2ccccc2Cl)cn1
 : -6.3% | -10.0%
- CSc1cccc(NC(=O)C2CCN(S(=O)(=O)c3ccc4[nH]c5c(c4c3)CCCCC5)CC2)c1
 : -18.6% | -19.1%
- CCCc1[nH]nc2c1C(c1ccncc1)C(C#N)=C(N)O2 (stereo not given)
 : nt | -11.9%
- Cc1cc(C)nc(-n2ncc3c2CC(c2ccccc2)CC3=O)n1 (stereo not given)
 : -4.3% | 4.0%
- CCOC(=O)N1CCN(C(=O)C2CC(=O)N(c3ccccc3)C2)CC1 (stereo not given)
 : i | -15.1%
- CCCS(=O)(=O)NC(=O)C1(C)CCCN(C(=O)c2ccc(OC)cc2OC)C1 (stereo not given)
 : -0.7% | 1.9%
- O=C(Nc1ccc(N2CCN(C(=O)c3cccs3)CC2)c(Cl)c1)c1cccnc1
 : -14.9% | -25.9%
- COc1ccc(-n2nc3cc(C)c(NC(=O)c4ccc(C)cc4C)cc3n2)cc1Cl
 : -1.6% | -7.1%
- CCc1ccc(S(=O)(=O)c2nnn3c2nc(NCc2ccccc2)c2cc(Cl)ccc23)cc1
 : -24.9% | -23.0%
- Cc1cc(NC(=O)c2c(-c3ccccc3Cl)noc2C)no1
 : i | -12.2%
- Cc1csc(=O)n1CCC(=O)OCC(=O)N(C)c1c(N)n(Cc2ccccc2)c(=O)[nH]c1=O
 : ? | ?

The list goes on:
molecule,VACV mCherry inh,VACV Venus inh
COc1ccc2oc(-c3cccc(NC(=O)c4cc([N+](=O)[O-])ccc4N4CCOCC4)c3)nc2c1,5.1%,2.7%
CC(C)CCn1c(/C=C/c2ccccc2)nc2ccccc21,-6.8%,1.8%
CCOc1nc(NCc2ccco2)nc(Nc2ccc(OC)cc2)n1,-11.6%,-24.8%
COc1ccc(-c2sc3ccccc3c2C#CCCO)cc1,-24.9%,?
O=C(CSc1nccn1-c1cccc(Cl)c1)Nc1cccc2ccccc12,i,-2.3%
CCc1nc2c(OCCC3CCCCC3)cccn2c1N(C)C(=O)c1ccccc1F,-24.2%,-19.6%
COc1cc(C2C3C(=O)N(c4ccccc4)C(=O)C3ON2c2ccccc2)ccc1O (stereo not given),-8.4%,-6.4%
CCCC(=O)NCc1nc2ccccc2n1C,-12.5%,-4.9%
Cn1c(=O)c2c(nc(NCc3cccnc3)n2Cc2cccc(C(F)(F)F)c2)n(C)c1=O,nt,?
O=c1[nH]c2cc(Br)ccc2n2cccc12,-6.0%,2.3%
COc1cccc(OC)c1OCc1cc(C2C3CCCC=C3C(C#N)=C(N)C2(C#N)C#N)c(C)cc1C (stereo not given),-27.7%,-21.1%
O=[N+]([O-])c1cccc2c(Cl)ccnc12,?,-20.9%
Cc1cc(CCNC=O)c(C)c2c1sc1ccccc12,-6.6%,-21.7%
Cc1nc(C)c(CCNC(=O)c2ccc(C(F)(F)F)cc2)s1,-8.4%,2.3%
Clc1cccc(Cl)c1CSc1nnc(CN2CCOCC2)n1-c1ccccc1,?,-24.0%
Cc1cnc(NC(=O)c2cc(S(=O)(=O)N(C)C)ccc2N2CCCC2)s1,-17.6%,-15.8%
Clc1ccc(OCCCCCN2CCOCC2)cc1,-9.9%,-6.1%
CCC(NC(=O)Cc1cccs1)c1ccccc1 (stereo not given),-14.3%,-1.9%
Cc1cccc(NC(=S)N(CCN(C)C)Cc2cccs2)c1,-11.3%,-5.4%
CN=C1NN=C(c2cc(C)n(-c3c(C)n(C)n(-c4ccccc4)c3=O)c2C)CS1,i,-8.3%

The list goes on, overlapping the part above by 5 compounds.
molecule,VACV mCherry inh,VACV Venus inh
Cc1cnc(NC(=O)c2cc(S(=O)(=O)N(C)C)ccc2N2CCCC2)s1,-17.6%,-15.8%
Clc1ccc(OCCCCCN2CCOCC2)cc1,-9.9%,-6.1%
CCC(NC(=O)Cc1cccs1)c1ccccc1 (stereo not given),-14.3%,-1.9%
Cc1cccc(NC(=S)N(CCN(C)C)Cc2cccs2)c1,-11.3%,-5.4%
CN=C1NN=C(c2cc(C)n(-c3c(C)n(C)n(-c4ccccc4)c3=O)c2C)CS1,i,-8.3%
CC1(C)CC(CC(=O)O)(c2ccc(F)cc2)CCO1 (stereo not given),i,-4.7%
COc1ccc(CNCCSc2nnnn2C)c(OC)c1OC,-17.9%,16.0%
O=C(CN1C(=O)C2CCCCC2C1=O)N1CCN(c2ncccn2)CC1 (stereo not given),-9.5%,-14.9%
CC(C)c1cccc(OCCn2c(-c3ccc(Cl)cc3)nc3ccccc3c2=O)c1,-12.6%,-8.8%
CC(CCc1ccco1)NC(=O)c1cc2c(-c3ccccc3F)nn(C)c2s1 (stereo not given),-17.0%,-28.5%
N#Cc1c(-c2ccccc2)c(-c2ccccc2)n(Cc2ccco2)c1NC(=O)c1cccs1,-13.3%,-13.8%
CC(=O)N1CCN(S(=O)(=O)c2cccc(C(=O)NCCC3=CCCCC3)c2)CC1,-12.0%,-15.7%
CC1=C(C#N)CCC(=O)N1Cc1c(F)cccc1Cl,-15.2%,-10.8%
Cc1ccc(C)c(N2CCN(C(=O)C(C)n3nc(C)c4sc5ccccc5c4c3=O)CC2)c1 (stereo not given),?,-20.9%
CC(C)[C@H](NC(=O)c1ccccc1F)C(=O)NC1CCCCCCC1,-21.2%,-15.9%
CCOC(=O)N1CCN(S(=O)(=O)c2ccc([N+](=O)[O-])cc2)CC1,?,-5.7%
O=C1C2C3C=CC([C@@H]2C(=O)N1Cc1cccnc1)C31CC1 (stereo not given in full),-18.7%,-12.5%
O=C(Cc1cccc(NC(=O)C2CCN(C(=O)CCc3ccccc3)CC2)c1)Nc1cccc(C(=O)N2CCCCC2)c1,?,-28.3%
Cc1nnc(SC(C(=O)Nc2ccc(Cl)c([N+](=O)[O-])c2)c2ccccc2)[nH]c1=O (stereo not given),-6.2%,-10.7%
CCC1(C)Cc2c(sc3nc(SC)[nH]c(=S)c23)CO1 (stereo not given),-21.3%,-6.9%
Cc1cc(C)c(C2C3=C(Nc4c2c(C)nn4-c2ccccn2)c2ccccc2C3=O)c(C)c1 (stereo not given),i,-10.7%
O=C(COc1ccc(Cl)cc1)Nc1ccc(Cc2ccncc2)cc1,?,-19.9%
CCN(C(=O)CSc1nnnn1-c1cc(C)ccc1OC)C1CCS(=O)(=O)C1 (stereo not given),nt,-8.3%
Cc1ccc(CNC(=O)CCCc2cn(C)c3ccccc23)cc1,i,-24.1%
CCOC(=O)c1ccc(N2C(=O)CC(N(Cc3ccc4c(c3)OCO4)C(=O)Nc3ccccc3)C2=O)cc1 (stereo not given),-1.6%,-8.4%
O=C(NCCc1nnc2n1CCN(Cc1ccc(F)cc1)CC2)c1ccc(F)cc1,-3.0%,-7.0%
Cc1ccc(C(=O)N(CC(=O)NC2CCCC2)c2ccccc2Cl)s1,-20.0%,-13.7%

Screening data from PubChem BioAssay.
